Source: PubChem (National Center for Advancing Translational Sciences (NCATS))
Cruzain inh Det – cruzain (T. cruzi) inhibition with detergent; purified cruzain, Z-FR-AMC fluorescence, 0.01% Triton; Potency, µM, inactives show max response, negative = inhibition, usual class: inhibitors; actives 0.43% (n = 200,000);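 further: plate controls were neutral wells for no effect and buffer without enzyme for full effect; nearly all actives have a fitted effect of over 40% in size; top concentration of the series not given in the record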
Target sequence (P25779 123-467 limits assumed): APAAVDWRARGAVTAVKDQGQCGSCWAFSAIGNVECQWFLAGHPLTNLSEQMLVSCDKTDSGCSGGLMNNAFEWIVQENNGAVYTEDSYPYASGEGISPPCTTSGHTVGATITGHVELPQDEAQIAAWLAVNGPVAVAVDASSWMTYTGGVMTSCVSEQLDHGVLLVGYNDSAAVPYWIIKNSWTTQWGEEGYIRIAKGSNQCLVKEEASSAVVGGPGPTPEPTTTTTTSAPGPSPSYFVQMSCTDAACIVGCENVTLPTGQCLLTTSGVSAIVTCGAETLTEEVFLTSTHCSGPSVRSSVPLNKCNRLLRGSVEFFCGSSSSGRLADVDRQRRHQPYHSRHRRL
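Compounds were screened in titration against cruzain (1.5 nM) with 0.01% Triton X-100 to counter colloidal aggregation. Activity was the AMC fluorescence increase over 60 s after adding 2 uM Z-FR-AMC at pH 5.5.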
StopGo reporter – lowers the luciferase signal of an FMDV 2A StopGo reporter; human cells with a luciferase reporter of 2A StopGo recoding; control for the full effect not named in the record; Potency, µM (series often up to 57.9 µM), inactives show at the top dose signal change, negative = less light; actives 1.2% (n = 410,000); active = well fitted falling curve with a large enough effect; inconclusive = small, poorly fitted or top-dose-only effect; inactive = no such curve, though single readings can be large or run the other way; tested in HEK293T cells; further: on the % scale 0 is the no-effect control and ±100 the full control effect; nearly all actives have a fitted effect of over 45% in size; luciferase light after 4 h
Cruzain inh noDet – blocks cruzain activity in detergent-free assay | P25779 | purified cruzain, Z-FR-AMC fluorescence, no detergent | Potency, µM, without a hit: max response, negative = inhibition, most hits filed as inhibitors | actives 2.3% (n = 200,000) | AID 1476;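 further: plate controls were enzyme without inhibitor for no effect and buffer without enzyme for full effect; nearly all actives have a fitted effect of over 40% in size; top concentration of the series not given in the record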
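Purified cruzain at 1.5 nM, pre-incubated 15 min with compound at room temperature in 100 mM sodium acetate pH 5.5, 5 mM DTT, 0.00005% Triton X-100. Reaction started with 2 uM Z-FR-AMC; AMC fluorescence increase over 60 s gives rate.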
LASV entry inh – Lassa virus entry inhibition | Potency, µM (series often up to 37.9 µM), for inactives: at the top dose activity change, negative = inhibition, usual class: inhibitors | actives 1.2% (n = 300,000) | Lassa virus pseudotype entry inhibition, cell reporter; control for the full effect not named in the record | AID 540256; active means well fitted inhibition curve with a large enough effect; inconclusive means small, poorly fitted or top-dose-only effect, or effect the other way; inactive means flat fitted curve, though single readings scatter; tested in HEK293 cells; further: on the % scale 0 is the no-effect control and ±100 the full control effect; nearly all actives have a fitted effect of over 50% in size; luciferase read-out
RE007 growth inh – less growth of the S. pombe RE007 Vpr strain; S. pombe RE007 Vpr strain, BacTiter-Glo ATP luminescence, 24 h; control for the full effect not named in the record; AID 651644; actives 0.21% (n = 360,000); Potency, µM (top dose mostly 92.2 µM), for inactives: at the highest dose activity change, negative = less growth; active = well fitted falling curve with a large enough effect; inconclusive = small, poorly fitted or top-dose-only effect; inactive = no such curve, though single readings can be large or run the other way;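 further: on the % scale 0 is the no-effect control and ±100 the full control effect; nearly all actives have a fitted effect of over 50% in size; the assay follows cell death caused by Vpr and the record does not say whether a fall means rescue or toxicity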
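Fission yeast strain RE007, carrying one chromosomally integrated HIV-1 vpr copy, was seeded at OD 0.01 in PMG+AL medium with 23 nL pinned compound. After 24 h at 30 °C and 99% humidity, viability was read by BacTiter-Glo luminescence.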
MARV entry inh – Marburg virus entry inhibition. Marburg virus pseudotyped entry inhibition, cell reporter; control for the full effect not named in the record; about a third of the inactives were read at about 46 µM. Potency, µM (highest dose often 37.8 µM), without a hit: at the highest dose activity change, negative = inhibition, hits mostly inhibitors. actives 1.8% (n = 300,000). AID 540276; active = well fitted inhibition curve with a large enough effect; inconclusive = small, poorly fitted or top-dose-only effect, or effect the other way; inactive = flat fitted curve, though single readings scatter; tested in HEK293 cells; about a fifth of its hits are not listed in these tables; further: on the % scale 0 is the no-effect control and ±100 the full control effect; luciferase read-out
NS1 inh – influenza NS1 inhibition; S. cerevisiae slowed by influenza A NS1, growth recovery by OD600; Potency, µM (top dose mostly 46.1 µM), without a hit: top-dose activity, positive = more growth; actives 0.4% (n = 270,000); AID 2326; active means well fitted rising curve with a large enough effect; inconclusive means small, poorly fitted or top-dose-only effect; inactive means no such curve, though single readings can be large or run the other way; further: nearly all actives have a fitted effect of over 50% in size
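In this qHTS, NS1 from influenza A is expressed in budding yeast, where it slows growth. Cells are switched from glucose to 2% galactose medium (pH 6.0, -URA), treated with compound, and growth recovery is read at OD600.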
SARS PLpro yeast – SARS-CoV PLP inhibition in yeast; S. cerevisiae expressing SARS-CoV PLpro, growth rescue; control for the full effect not named in the record; Potency, µM (doses to about 32.9 µM), inactives show at the top dose activity, positive = growth rescue; actives 0.19% (n = 330,000); active means well fitted rising curve with a large enough effect; inconclusive means small, poorly fitted or top-dose-only effect; inactive means no such curve, though single readings can be large or run the other way; further: 0% is about no effect; nearly all actives have a fitted effect of over 55% in size; growth read by luminescence after 48 h
* = called active by the depositor; ? = inconclusive; . = not tested or not shown; & = joins results of further samples; [ ] = another dose, or the depositor's remark. Unless noted, the call rests on the fitted dose curve; in most records, active means well fitted curve in the direction sought with a large enough effect; inconclusive means small, poorly fitted or top-dose-only effect, or another doubt; inactive means no such curve, though single readings can be large; an effect the other way counts as inactive or inconclusive. Potency means the concentration at half of the fitted maximal effect.

Compound | Cruzain inh Det | StopGo reporter | Cruzain inh noDet | LASV entry inh | RE007 growth inh | MARV entry inh | NS1 inh | SARS PLpro yeast
CC(C)c1nc(SCC(=O)N2CCOCC2)c2c(=O)n(C)c(=O)n(C)c2n1 | -0.5% | -24% | 0% | . | -5% | 0% | 1% | 10%
COc1ccc(CCCc2nnc(SCC(=O)Nc3ncc(C)s3)o2)cc1 | 1.0% | ? | 8% | 0% | 2% | 1% | -6% | 0%
CC1(c2ccccc2Cl)NC(=O)N(CC(=O)c2ccc3c(c2)OCO3)C1=O (centres undefined) | . | -1% | . | -10% | 15% | -3%[46.1 µM] | . | -1%
COc1cccc(COCC(O)Cn2cnc3cc(C)c(C)cc32)c1 (centres undefined) | . | ? | . | 3% | 9% | 4%[46.1 µM] | . | -5%
CC1(C)Cc2c(cnn2-c2ccccc2)-c2c1c1ccccc1n2CC(O)CCl (centres undefined) | -9.7% | ? | 3% | -13% | 4% | ? | 20% | -47%
COc1ccc2cc(C3c4cc(OC)c(OC)cc4CCN3C(=O)c3ccco3)c(=O)[nH]c2c1 (centres undefined) | . | -27% | . | ? | -13% | -16%[46.1 µM] | -1% | 2%
c1ccc2c(N3CCOCC3)nc(N3CCOCC3)nc2c1 | -4.8% | -2% | -2% | -3% | -2% | -11% | 20% | 3%
CCOc1ccccc1NC(=O)C(=O)N/N=C/c1ccc([N+](=O)[O-])cc1 | . | 8% | . | -7% | -12% | -3% | . | -1%
CCc1ccc(C(c2ccc(CC)cc2)C(Cl)Cl)cc1 | -3.2% | -25% | -20% | . | 8% | . | . | 4%
O=c1c2c3c(sc2n2cnnc2n1Cc1ccccc1)CN(Cc1ccccc1)CC3 | -3.7% | ? | ? | -1% | -13% | -28% | ? | -9%
Oc1ccc(Cl)cc1CNn1cnnc1 | . | -5% | . | 5% | 4% | -9%[46.1 µM] | 3% | 0%
O=C1c2ccccc2C(=O)N1CCSc1n[nH]c(=S)s1 | 4.9% | -14% | -4% | 13% | -7% | 1% | 1% | 7%
CCN(CC)S(=O)(=O)c1ccc(C(=O)Nc2ncn(Cc3ccccc3)n2)cc1 | 6.8% | 41%[activator] | 0% | -27%[14.3 µM] | -2% | -2% | 3% | -3%
CCN(C(=O)c1cc2c(s1)-c1c(C)cccc1OC2)c1cc(C)ccc1C | -14% | 0% | -19% | . | . | -17%[46.1 µM] | . | .
O=C(Nc1ccc2c(c1)CCCN2C(=O)c1cccs1)c1c(F)cccc1F | 0.3% | ? | 2% | ? | 19% | . | -8% | -3%
Cc1cc(=O)oc2cc(OCc3ccc(C(=O)OCC(=O)Nc4ccccc4OC(F)F)cc3)ccc12 | -3.9% | -3% | ? | 8% | -16% | -19% | 5% | -7%
COc1cccc(CNS(=O)(=O)c2ccc3c(c2)CC(C)N3C(C)=O)c1 (centres undefined) | . | -2% | . | -2%[46.1 µM] | 5% | -18%[46.1 µM] | 3% | 15%
CCOc1ccc(NS(=O)(=O)c2ccc3c(c2)N(C(C)=O)CCO3)cc1 | . | 16% | . | . | -1% | . | -6% | -10%
O=C(CSc1nc(=O)[nH]c2c1CCC2)NCc1ccccc1Cl | -1.2% | -12% | -2% | 1%[46.1 µM] | . | . | . | .
O=C(COC(=O)[C@H](Cc1ccccc1)NC(=O)c1ccco1)Nc1ccccc1OC(F)F | . | 0% | . | 3% | -7% | -2% | . | 1%
Cc1ccc(CNC(=O)[C@H](C)[C@H]2C[C@]2(C)[C@H](NC(=O)OCc2ccccc2)c2ccccc2)o1 | -8.0%&-6.6% | -10% | ? | -20% | 7% | 10µM* | 27% | -8%
Cc1ccc(NC(=O)Cn2nnc3sc4c(c3c2=O)CCCC4)c(C)c1 | -1.6% | -23% | 3% | ? | . | 4%[46.1 µM] | . | .
COCCn1nnnc1C(c1ccccc1)N1CCN(C)CC1 (centres undefined) | 0.1% | -1% | -6% | 0% | -11% | 4% | -6% | 2%
O=Cc1c(-[n+]2ccccc2)nc([O-])n1-c1ccccc1 | -2.1% | 19% | 9% | 0% | 0% | 22% | 6% | 7%
C=CCOC(=O)C1=C(C)OC(N)=C(C#N)C1c1ccc2c(c1)OCO2 (centres undefined) | -16% | -8% | -14% | 20% | 9% | 1% | 19% | 13%
CCOc1ccc(-n2c(=O)c3sc4ccccc4c3n(Cc3ccc(F)cc3)c2=O)cc1 | 0.7% | -22% | 4% | -24%[46.1 µM] | . | 12%[46.1 µM] | . | .
C=CCc1ccc(OCC(O)CN2CCCCC2)c(OC)c1 (centres undefined) | 3.7% | 9% | 11% | 0% | -11% | -23%[46.1 µM] | 6% | 0%
CCCOc1ccc(C(=O)Nc2c(C(=O)c3ccc(C)cc3)oc3ccccc23)cc1 | 1.3% | 2% | 6% | 5%[46.1 µM] | . | -5%[46.1 µM] | . | .
COc1ccc(/C=N/NC(=O)c2nn(C)cc2Br)cc1CSCc1ccco1 | . | -15% | . | -21% | -18% | 15% | 0% | -4%
CCCCc1nc2sc3c(c2c(=O)[nH]1)CCC3 | -1.6% | 14% | -9% | 4% | 4% | 12%&12% | 7% | 9%
CCn1cnc2cc(NCc3ccc(C)cc3)ccc21 | 3.0% | . | 5% | 7% | -9% | 1% | -19% | -1%
COc1ccc(C(=O)CCC(=O)Nc2cccc(C(C)=O)c2)cc1 | 0.7% | -12% | 2% | 27%[46.1 µM] | . | . | . | .
CCC(=O)NC(c1ccco1)c1cc(Cl)c2cccnc2c1O (centres undefined) | . | -15% | . | ? | ? | ? | -39% | -6%
CCOC(=O)C1CN(S(=O)(=O)c2ccc(F)cc2)C1 | 4.3% | 19% | 1% | -1% | -1% | 17% | 9% | 5%
CCOc1ccc2nc(NC(=O)c3ccccc3)sc2c1 | -9.9% | ? | -14% | -1%[46.1 µM] | . | . | . | .
COc1ccc(OC)c(N2C(=NC(=O)C3CCCCC3)SC3CS(=O)(=O)CC32)c1 (centres undefined) | . | -2% | . | . | -9% | . | -6% | 1%
CN(Cc1cnn(-c2ccccc2)c1)C(=O)C1CCC(=O)N(C2CC2)C1 (centres undefined) | . | -9% | . | 12% | -14% | -21% | 0% | 0%
CN(c1ccc(OCC(=O)OCC(=O)Nc2ccccc2)cc1)S(=O)(=O)c1cccs1 | -3.9% | -3% | 18% | 7% | -2% | ? | -25% | 1%
O=C1CN(C(=O)CSc2nncs2)c2ccccc2N1 | . | 60%[activator] | . | 6%[46.1 µM] | -1% | ? | . | 1%
O=[N+]([O-])c1cccc(C(=Nc2ccc(Cl)cc2)NO)c1 | -3.7% | ? | -10% | -27% | 10% | -10% | -2% | -5%
Cc1ccccc1S(=O)Cc1ccc(C(=O)NC2CC2)o1 (centres undefined) | . | -10% | . | . | 1% | . | 7% | 2%
COc1ccccc1NC(=O)C1=C(C)NC(=O)NC1c1cccs1 (centres undefined) | . | 1% | . | 6% | -6% | 6%[46.1 µM] | . | -2%
COCCCn1cc(C(=O)c2ccccc2OCC(=O)Nc2cccc(F)c2)cc(C#N)c1=O | . | 15% | . | 1%[46.1 µM] | -18% | 14%[46.1 µM] | -5% | -2%
CC(=O)c1cc(-c2ccccc2)n(CC(=O)Nc2cccc(C)c2)c1C | -2.8% | ? | 4% | 0% | 10% | -29% | 12% | 6%
O=C(CCCSc1nnc(-c2cccs2)n1CC1CCCO1)c1ccccc1 (centres undefined) | -0.4% | ? | -1% | 16% | 11% | -1% | -4% | 0%
C[C@H](NC(=O)N1CCn2c1nc1ccccc12)C(=O)NCC1CCCO1 (some centres undefined) | . | -1% | . | 3%[46.1 µM] | -11% | ? | -1% | 4%
COc1ccc(-c2nc(CSCC(=O)N3CCN(c4ccc(OC)cc4)CC3)c(C)o2)cc1 | -0.4% | -24% | -8% | 11%[46.1 µM] | . | -21%[46.1 µM] | . | .
Clc1ccc(-c2nnc(-c3ccco3)o2)cc1 | 4.4% | . | 2% | ? | ? | 22% | -17% | 2%
Cc1cccc(NC(=O)CS(=O)(=O)c2c[nH]c3ccccc23)c1C | 0.1% | -5% | -3% | ? | 1% | -13% | -7% | 0%
O=C(Nc1ccc(Sc2ccc(Br)cc2)cc1)c1ccco1 | -6.6% | -9% | 17% | 7% | -8% | 3%[46.1 µM] | -27% | -14%

Carrying on.
Compound | Cruzain inh Det | StopGo reporter | Cruzain inh noDet | LASV entry inh | RE007 growth inh | MARV entry inh | NS1 inh | SARS PLpro yeast
COC(=O)COc1ccc2c(c1)O/C(=C\c1cccc([N+](=O)[O-])c1)C2=O | . | -5% | . | . | -4% | . | 2% | 2%
O=C(NCc1ccc(-c2nc3ccccc3s2)cc1)c1ccco1 | -3.4% | 6% | 25µM* | ? | 19% | ? | -3% | -2%
Cc1ccc(C)c(OCCC(=O)OCC(=O)NCCc2ccc(S(N)(=O)=O)cc2)c1 | . | -14% | . | -1% | 1% | -1% | . | 0%
CCOc1ccc2[nH]c(=O)c(CN(CC3COCCO3)C(=O)c3ccc(C)cc3)cc2c1 (centres undefined) | . | -9% | . | . | -6% | . | -1% | 0%
CCn1c(C(=O)N2CCCC(C(=O)O)C2)cc2sccc21 (centres undefined) | 2.9% | -7% | -10% | 8% | 8% | 19% | 3% | -5%
CSC1=C(C#N)C2(CCCC2)C(C#N)=C(N)N1 | -1.6% | . | -9% | . | . | . | -8% | 6%
Cc1ccc(O)c(/C=N/NC(=O)C2=NNC(c3ccccc3)(c3ccccc3)C2)c1 | -15% | . | 13µM* | . | . | . | 18% | 6.3µM*
CCOC(=O)N1CCN(CCC(=O)Nc2ccc(C)c(Br)c2)CC1 | 4.7% | ? | 9% | -18% | 0% | 20% | -4% | 0%
COc1ccc2c(c1)Cc1sc(NC(=O)c3ccc(Cl)cc3)nc1-2 | -7.0% | -19% | 3.2µM* | 3%[46.1 µM] | . | ? | . | .
COc1ccc(NC(=O)Nc2cccc3ccccc23)cc1S(N)(=O)=O | . | 8% | . | 4µM* | -7% | 10%[46.1 µM] | 7% | 2%
COc1ccc(NC(=O)CN2C(=O)C(C)Oc3ccccc32)c(OC)c1 (centres undefined) | -0.2% | 11% | -16% | 7% | 7% | -8% | -6% | -1%
